Bioassay records as filed in PubChem.
HIV Env fusion: HIV envelope-mediated fusion inhibition; actives 1.1% (n = 360,000); inhibition, % at 12.3 µM; HeLa-JRFL Env/CEM21 cell fusion, luciferase; AID 651610;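 active = mean replicate inhibition score of at least 50 and every replicate individually at or above 50; inconclusive = only one of the two criteria met; inactive = mean below 50 and not all replicates reaching 50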;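 note: 0% = plate neutral controls and 100% = maraviroc near 300 nM; one replicate is shown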
Yeast UUG start: yeast start codon fidelity modulation | S. cerevisiae UUG-firefly luciferase reporter, luminescence/redox ratio | actives 0.13% (n = 350,000) | activity score, % at 18.7 µM;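 active = replicate mean at a twofold rise or more, about +100% in these data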;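 note: firefly luciferase made from a UUG start codon reports start codon fidelity; reporter light over untreated wells divided by growth signal over untreated wells; some hits fall short of that in this replicate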
* = called active by the depositor; ? = inconclusive; & = joins results of further samples; [ ] = dose if it differs, or a comment.

Order of values: HIV Env fusion, Yeast UUG start
> C[C@@H]1CCCCO[C@@H](CN(C)C(=O)Nc2ccc3c(c2)OCO3)[C@@H](C)CN([C@H](C)CO)C(=O)c2cc(NC(=O)Nc3ccccc3)ccc2O1
 : 7[16.7 µM], 0
> CC(=O)N(C)C[C@@H]1Oc2ncc(C#Cc3ccccc3)cc2C(=O)N([C@H](C)CO)C[C@@H]1C
 : 6[16.7 µM], -4
> CO[C@@H]1CN(C)C(=O)c2cc(NC(=O)Nc3c(C)noc3C)ccc2OC[C@H](C)NC[C@H]1C
 : 0[16.7 µM], -6
> Cc1noc(C)c1NC(=O)N(C)C[C@H]1Oc2ccc(NC(=O)Nc3ccc(F)cc3)cc2CC(=O)N([C@H](C)CO)C[C@H]1C
 : -8[16.7 µM], 12
> CC(=O)Nc1ccc2c(c1)C(=O)N(C)[C@@H]1CC[C@@H](CC(=O)NCc3ccccc3)O[C@@H]1CO2
 : -9[16.7 µM], -20
> COc1ccc(S(=O)(=O)N(C)C[C@@H]2OCCCC[C@H](C)Oc3ccc(NC(=O)Nc4ccc(C(F)(F)F)cc4)cc3C(=O)N([C@@H](C)CO)C[C@H]2C)cc1
 : 3[16.7 µM], -24
> C[C@@H]1CN([C@H](C)CO)C(=O)Cc2cc(N(C)C)ccc2O[C@@H]1CN(C)Cc1ccccc1
 : -31[16.7 µM], -10
> O=C(C[C@@H]1C[C@H]2c3cc(NC(=O)c4cccnc4)ccc3O[C@H]2[C@H](CO)O1)NCc1ccccc1F
 : -4[16.7 µM], -17
> CCCC(=O)Nc1ccc2c(c1)C(=O)N(C)[C@H]1CC[C@@H](CC(=O)NCc3ccccc3)O[C@@H]1CO2
 : 12[16.7 µM], 6
> C/C=C/c1ccc2c(c1)O[C@H](CN(C)Cc1cccc(F)c1)[C@@H](C)CN([C@@H](C)CO)S2(=O)=O
 : 11[16.7 µM], -5
> C[C@H](CO)N1C[C@H](C)[C@@H](CN(C)Cc2ccccc2)Oc2cc(C#CC3CC3)ccc2S1(=O)=O
 : -21[16.7 µM], 80
> COc1ccc(C#Cc2cnc3c(c2)C(=O)N([C@@H](C)CO)C[C@H](C)[C@H](CN(C)CC2CCOCC2)O3)cc1
 : -6[16.7 µM], -1
> COc1ccc(NC(=O)Nc2ccc3c(c2)C(=O)N([C@@H](C)CO)C[C@@H](C)[C@H](CN(C)S(=O)(=O)c2ccc(F)cc2)O3)cc1
 : -14[16.7 µM], -1
> C[C@H]1CCCCO[C@@H](CN(C)Cc2ccccc2)[C@@H](C)CN([C@@H](C)CO)C(=O)c2cc(NS(=O)(=O)c3cccs3)ccc2O1
 : -30[16.7 µM], 2
> C[C@@H]1CN([C@@H](C)CO)S(=O)(=O)c2ccc(-c3ccncc3)cc2O[C@@H]1CN(C)Cc1ccccn1
 : -11[16.7 µM], -5
> CCS(=O)(=O)N[C@H]1C=C[C@@H](CC(=O)NC2Cc3ccccc3C2)O[C@H]1CO
 : -12[16.7 µM], -20
> C[C@@H]1CN([C@@H](C)CO)S(=O)(=O)c2ccc(-c3cncnc3)cc2O[C@H]1CN(C)C(=O)C1CCCCC1
 : 13[16.7 µM], 1
> COc1ccccc1-c1ccc([C@H]2[C@@H](CO)N(C(=O)c3cccc(F)c3)[C@H]2C#N)cc1
 : -29[16.7 µM], 4
> Cc1ccc(-c2cnc3c(c2)C(=O)N([C@@H](C)CO)C[C@@H](C)[C@@H](CN(C)C(=O)c2cccnc2)O3)cc1
 : -18[16.7 µM], -6
> CN1C(=O)c2cc(NC(=O)c3cccc(F)c3)ccc2OC[C@@H]2O[C@@H](CC(=O)NC3CCC3)CC[C@H]21
 : -6&16[16.7 µM], -2&1
> C/C=C/c1ccc2c(c1)O[C@@H](CN(C)C(=O)Nc1ccc(OC)cc1)[C@H](C)CN([C@@H](C)CO)S2(=O)=O
 : -1[16.7 µM], 0
> CS(=O)(=O)N1[C@@H](C#N)[C@H](c2ccc(C#Cc3cccc(F)c3)cc2)[C@@H]1CO
 : -13[16.7 µM], 4
> Cc1noc(C)c1NC(=O)N(C)C[C@@H]1OCCCC[C@H](C)Oc2ccc(NC(=O)c3ccccc3)cc2C(=O)N([C@@H](C)CO)C[C@H]1C
 : 29[16.7 µM], -15
> CN(C)Cc1cn(CC[C@@H]2CC[C@@H](NS(=O)(=O)c3ccc(-c4ccccc4)cc3)[C@@H](CO)O2)nn1
 : -5[16.7 µM], -12
> CCCNC(=O)N(C)C[C@H]1Oc2ncc(C#CCC3CCCC3)cc2C(=O)N([C@H](C)CO)C[C@@H]1C
 : -12[16.7 µM], 11
> CC(C)NC(=O)Nc1ccc2c(c1)C(=O)N([C@@H](C)CO)C[C@@H](C)[C@@H](CN(C)S(=O)(=O)c1ccc(Cl)cc1)OCCCC[C@H](C)O2
 : 5[16.7 µM], -5
> CNC(=O)C[C@H]1CC[C@H]2[C@@H](COc3ccc(NC(=O)c4ccc5c(c4)OCO5)cc3C(=O)N2C)O1
 : -29[16.7 µM], 3
> COc1ccc(NC(=O)N(C)C[C@@H]2Oc3ncc(C#CCC(C)C)cc3C(=O)N([C@H](C)CO)C[C@@H]2C)cc1
 : 1[16.7 µM], 5
> COc1cccc(NC(=O)N(C)C[C@H]2Oc3cc(C#Cc4ccccc4)ccc3S(=O)(=O)N([C@@H](C)CO)C[C@H]2C)c1
 : -80[16.7 µM], 7
> COc1ccc(NC(=O)Nc2ccc3c(c2)C(=O)N([C@@H](C)CO)C[C@@H](C)[C@@H](CN(C)C(=O)CCCN(C)C)OCCCC[C@H](C)O3)cc1
 : ?, 13
> C[C@H](CO)N1C[C@H](C)[C@@H](CN(C)S(=O)(=O)c2ccc(F)cc2)Oc2ccc(NC(=O)Cn3cnnn3)cc2CC1=O
 : 1[16.7 µM], 14
> C[C@@H]1CN([C@H](C)CO)C(=O)c2cc(C#Cc3ccccc3)cnc2O[C@H]1CN(C)C(=O)CCN1CCCCC1
 : -7[16.7 µM], 7
> C[C@@H]1CN([C@@H](C)CO)C(=O)c2cc(NC(=O)Nc3ccc4c(c3)OCO4)ccc2O[C@H]1CN(C)Cc1ccc(C(F)(F)F)cc1
 : 25[16.7 µM], 2
> O=C(Cc1ccncc1)NCC[C@H]1CC[C@H](NC(=O)Nc2ccc(Cl)cc2)[C@H](CO)O1
 : -6[16.7 µM], -4
> C[C@H](CO)N1C[C@H](C)[C@@H](CN(C)C(=O)Nc2ccccc2)Oc2ccc(NC(=O)Nc3ccc4c(c3)OCO4)cc2CC1=O
 : 16[16.7 µM], 14
> C[C@@H]1CN([C@@H](C)CO)C(=O)Cc2cc(NC(=O)NC3CCCCC3)ccc2O[C@H]1CN(C)Cc1ccc(Cl)c(Cl)c1
 : 16[16.7 µM], -4
> Cc1noc(C)c1NC(=O)Nc1cccc2c1O[C@@H](CN(C)C(=O)Nc1ccc3c(c1)OCO3)[C@H](C)CN([C@H](C)CO)C2=O
 : 12[16.7 µM], -1
> C[C@H]1CN([C@@H](C)CO)S(=O)(=O)c2ccc(C#Cc3ccncc3)cc2O[C@H]1CN(C)C
 : 10[16.7 µM], -12
> C[C@@H]1CN([C@H](C)CO)S(=O)(=O)c2ccc(-c3cncnc3)cc2O[C@H]1CN(C)C(=O)CN(C)C
 : -9[16.7 µM], -1
> C[C@H](CO)N1C[C@H](C)[C@@H](CN(C)C(=O)CCC(F)(F)F)OCCCC[C@H](C)Oc2ccc(NC(=O)Nc3ccccc3)cc2C1=O
 : -12[16.7 µM], 3
> C[C@H](CO)N1C[C@H](C)[C@H](CN(C)S(=O)(=O)c2ccccc2)Oc2c(NS(=O)(=O)c3ccc(F)cc3)cccc2C1=O
 : 20[16.7 µM], -3
> COc1ccc(NC(=O)N(C)C[C@@H]2OCCCC[C@H](C)Oc3ccc(NC(=O)Nc4ccc(C(F)(F)F)cc4)cc3C(=O)N([C@H](C)CO)C[C@@H]2C)cc1
 : 38[16.7 µM], -5
> O=C(O)C[C@@H]1CC[C@H](NC(=O)Nc2cc(F)ccc2F)[C@@H](CO)O1
 : 15[16.7 µM], -8
> Cc1ccc(S(=O)(=O)Nc2ccc3c(c2)C(=O)N([C@@H](C)CO)C[C@H](C)[C@H](CN(C)C(=O)NC2CCCCC2)OCCCC[C@@H](C)O3)cc1
 : -65[16.7 µM], -2
> CCCN(C)C[C@H]1Oc2cc(-c3ccc(C#N)cc3)ccc2S(=O)(=O)N([C@@H](C)CO)C[C@H]1C
 : 10[16.7 µM], 2
> C[C@H](CO)N1C[C@H](C)[C@H](CN(C)C(=O)Nc2cccc3ccccc23)OCCCC[C@H](C)Oc2ccc(NC(=O)c3ccncc3)cc2C1=O
 : 1[16.7 µM], 9
> CCC(=O)N[C@@H]1CC[C@@H](CCNC(=O)Nc2ccc(C(F)(F)F)cc2)O[C@@H]1CO
 : -7[16.7 µM], -1
> COc1ccc(NC(=O)N(C)C[C@@H]2Oc3c(NS(=O)(=O)c4ccc(OC)cc4)cccc3C(=O)N([C@@H](C)CO)C[C@@H]2C)cc1
 : -19[16.7 µM], -1
> CS(=O)(=O)N1[C@@H](C#N)[C@@H](c2ccccc2)[C@@H]1CO
 : 4[16.7 µM], -4
> C[C@@H]1CCCCO[C@H](CN(C)C(=O)Nc2ccc3c(c2)OCO3)[C@H](C)CN([C@H](C)CO)C(=O)c2cc(NS(=O)(=O)c3cn(C)cn3)ccc2O1
 : -3[16.7 µM], 3
> C=CC[C@H](OC(=O)Nc1ccc(SC)cc1)c1ccc(OCCO)cc1
 : 8[16.7 µM], -1
> CC(C)CC#Cc1ccc2c(c1)O[C@H](CN(C)C(=O)c1ccccc1F)[C@H](C)CN([C@H](C)CO)S2(=O)=O
 : 29[16.7 µM], -14
> C[C@H](CO)N1C[C@H](C)[C@H](CN(C)S(=O)(=O)c2cn(C)cn2)OCCCC[C@H](C)Oc2ccc(NC(=O)Nc3cccc4ccccc34)cc2C1=O
 : -2[16.7 µM], 4
> C[C@H](CO)N1C[C@H](C)[C@@H](CN(C)Cc2ccccc2)Oc2ccc(NC(=O)CCN3CCOCC3)cc2C1=O
 : 4[16.7 µM], 20
> O=C(C[C@H]1CC[C@H](NC(=O)C2CCOCC2)[C@@H](CO)O1)Nc1nccs1
 : -1[16.7 µM], -6
> Cc1noc(C)c1S(=O)(=O)Nc1ccc2c(c1)C(=O)N([C@H](C)CO)C[C@H](C)[C@H](CN(C)S(=O)(=O)c1ccc(F)cc1)OCCCC[C@H](C)O2
 : -15[16.7 µM], 2
> COc1cc(C2c3cc4c(cc3C(O)C3COCC23)OCO4)cc(OC)c1OC (stereo unspecified)
 : 0, -5
> C[C@H](CO)N1C[C@H](C)[C@H](CN(C)Cc2cncnc2)Oc2cc(/C=C/c3ccccc3)ccc2S1(=O)=O
 : -2[16.7 µM], -2
> COc1ccc(NC(=O)Nc2ccc3c(c2)CC(=O)N([C@@H](C)CO)C[C@@H](C)[C@H](CN(C)C(=O)Nc2ccc4c(c2)OCO4)O3)cc1
 : 11[16.7 µM], 8
> C[C@@H]1CN([C@@H](C)CO)C(=O)Cc2cc(NC(=O)CCCCCC(=O)Nc3ccccc3N)ccc2O[C@H]1CN(C)S(=O)(=O)c1cccs1
 : 14[16.7 µM], 6

One compound at a time, as listed above:
C[C@@H]1CN([C@@H](C)CO)C(=O)Cc2cc(NC(=O)CCCCCC(=O)Nc3ccccc3N)ccc2O[C@H]1CN(C)S(=O)(=O)c1cccs1 is entered as HIV Env fusion: 14[16.7 µM]; Yeast UUG start: 6
C[C@H](CO)N1C[C@H](C)[C@@H](CN(C)Cc2ccccc2)Oc2ccc(NC(=O)CCN3CCOCC3)cc2C1=O is entered as HIV Env fusion: 4[16.7 µM]; Yeast UUG start: 20
C=CC[C@H](OC(=O)Nc1ccc(SC)cc1)c1ccc(OCCO)cc1 is entered as HIV Env fusion: 8[16.7 µM]; Yeast UUG start: -1

Next part.
Order of values: HIV Env fusion, Yeast UUG start
> Cc1ccc(S(=O)(=O)Nc2ccc3c(c2)C(=O)N([C@H](C)CO)C[C@H](C)[C@@H](CN(C)S(=O)(=O)c2cn(C)cn2)O3)cc1
 : -1[16.7 µM], -4
> C[C@H]1CN([C@@H](C)CO)C(=O)c2cc(C3=CCCC3)cnc2O[C@@H]1CN(C)S(C)(=O)=O
 : -8[16.7 µM], -2
> CCC(=O)N[C@H]1CC[C@H](CCNC(=O)Nc2ccc(F)cc2)O[C@H]1CO
 : 2[16.7 µM], -5
> CO[C@@H]1CN(C)C(=O)c2cc(NC(=O)Nc3ccccc3)ccc2OC[C@@H](C)N(C(C)=O)C[C@@H]1C
 : 2[16.7 µM], 10
> COc1ccc(CN(C)C[C@H]2Oc3ccc(NC(=O)Nc4ccccc4)cc3CC(=O)N([C@@H](C)CO)C[C@H]2C)cc1
 : 2[16.7 µM], 4
> C[C@H](NC(=O)C[C@H]1C=C[C@@H](NC(=O)C2CC2)[C@H](CO)O1)c1ccccc1
 : -11[16.7 µM], -19
> C[C@@H]1CN([C@@H](C)CO)C(=O)c2cccc(NS(=O)(=O)c3cn(C)cn3)c2O[C@H]1CN(C)Cc1ccccc1
 : 14[16.7 µM], -18
> C[C@@H]1CN([C@H](C)CO)C(=O)Cc2cc(NC(=O)Cc3ccccc3)ccc2O[C@@H]1CN(C)C(=O)Nc1ccccc1
 : -15[16.7 µM], -5
> C[C@H](CO)N1C[C@H](C)[C@H](CN(C)C(=O)NC2CCCCC2)Oc2ccc(NC(=O)Nc3ccc(F)cc3)cc2C1=O
 : 15[16.7 µM], -6
> C[C@@H]1CN([C@H](C)CO)C(=O)c2cc(C#CCN(C)C)cnc2O[C@H]1CN(C)Cc1ccc(F)cc1
 : -2[16.7 µM], -1

Only part of the results is shown; the hit share may differ from the screen's.
